High-throughput results from PubChem BioAssay.
Rango dissoc inh – inhibitors of RanGTP-induced Rango-importin beta complex dissociation | O95149+P62826 | Biochemical FRET Rango-importin beta, RanGTP-induced dissociation | Potency, µM (series often up to 46.1 µM), without a hit: top-dose activity change, negative = inhibition | 340,000 compounds, 0.071% hits | AID 540253; active means falling FRET ratio curve, often poorly fitted, with flat reads before Ran was added; inconclusive means other falling curves, or compound fluorescence or quenching; inactive means flat or rising ratio curve;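 note: potency is the fitted concentration of half-maximal effect; % of control where 0% means no effect; nearly all actives have a fitted effect of over 45% in size; -100% = wells without RanGTP and RCC1; the record marks most hits as doubtful in a second field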
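Rango (0.1 uM)–importin beta (0.25 uM) complex; RanGTP-RCC1 trigger; 45 min RT; CFP/YFP FRET read.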
GLA inh pH 4.5 – blocks human alpha-galactosidase A at pH 4.5; activity change, negative = inhibition, % at 105 µM; purified enzyme, 4-MU-alpha-Gal fluorescence, pH 4.5; 230,000 tested, under 10 active; inconclusive = small, poorly fitted or top-dose-only inhibition, or a rising curve; inactive = flat fitted curve, though single readings scatter; no compound was filed as active;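 note: 0% = full activity with enzyme and -100% = basal without enzyme; dose as in the result columns while the protocol names 77 µM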
miR-21 reporter – miR-21 reporter, rising signal. HeLa miR-21 FLuc reporter, luciferase, 48 h. Potency, µM (series often up to 38.3 µM), for the others: at the top dose reporter change, positive = more light. 340,000 tested, under 10 active; active = well fitted rising curve with a large enough effect; inconclusive = small, poorly fitted or top-dose-only effect; inactive = no such curve, though single readings can be large or run the other way;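 note: % of control where 0% means no effect; miR-21 action dims this reporter so a rising signal means less miR-21 action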
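Luminescence from a firefly luciferase reporter carrying a miR-21 binding site downstream, stably expressed under a CMV promoter in HeLa cells that make miR-21 endogenously, reports miRNA modulation after 48 h compound exposure up to approximately 40uM final.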
Rango complex inh – prevents formation of the Rango-importin beta complex; Potency, µM (doses to about 92.2 µM), inactives show at the top dose inhibition of complex formation; Rango CFP/YFP FRET sensor + importin beta, 45 min; Q14974; 340,000 compounds, 0.031% hits; AID 540263; active = rising FRET ratio curve, often small or poorly fitted; inconclusive = mostly compound fluorescence or quenching in the first reads; inactive = flat curves in all reads;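 note: potency is the fitted concentration of half-maximal effect; 0% = DMSO wells and 100% = buffer wells lacking importin beta; nearly all actives have a fitted effect of over 15% in size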
Target sequence (Q14974 whole entry, looked up): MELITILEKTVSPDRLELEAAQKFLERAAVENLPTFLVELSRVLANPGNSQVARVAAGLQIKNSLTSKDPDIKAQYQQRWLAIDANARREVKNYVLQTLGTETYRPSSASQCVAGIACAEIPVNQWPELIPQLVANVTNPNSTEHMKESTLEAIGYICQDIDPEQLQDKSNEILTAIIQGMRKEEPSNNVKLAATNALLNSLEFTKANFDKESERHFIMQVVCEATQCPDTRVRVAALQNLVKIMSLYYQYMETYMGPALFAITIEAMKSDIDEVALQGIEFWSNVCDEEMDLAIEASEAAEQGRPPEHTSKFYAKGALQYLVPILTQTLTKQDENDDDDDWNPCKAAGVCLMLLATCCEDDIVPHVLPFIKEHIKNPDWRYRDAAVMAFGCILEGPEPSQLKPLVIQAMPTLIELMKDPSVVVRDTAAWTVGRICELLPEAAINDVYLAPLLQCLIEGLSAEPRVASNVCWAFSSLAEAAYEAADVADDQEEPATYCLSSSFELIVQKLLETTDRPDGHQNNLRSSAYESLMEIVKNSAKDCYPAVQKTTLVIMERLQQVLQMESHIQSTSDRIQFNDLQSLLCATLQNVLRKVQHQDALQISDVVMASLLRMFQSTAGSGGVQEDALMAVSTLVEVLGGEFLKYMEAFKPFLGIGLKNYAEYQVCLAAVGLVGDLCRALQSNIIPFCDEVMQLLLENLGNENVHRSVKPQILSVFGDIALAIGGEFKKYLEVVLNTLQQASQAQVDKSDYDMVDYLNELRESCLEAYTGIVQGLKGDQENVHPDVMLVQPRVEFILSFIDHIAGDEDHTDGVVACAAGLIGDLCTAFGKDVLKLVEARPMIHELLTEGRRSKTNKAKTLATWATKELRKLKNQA
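FRET biosensor Rango (snurportin 1 IBB between N-terminal EYFP and C-terminal Cerulean), 50 nM in PBS/1 mM DTT/0.02% Tween-20/0.1% BSA, preincubated 5 min RT with compound; 0.125 microM importin beta added, 45 min RT, CFP/YFP FRET ratio read.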
* = called active by the depositor; ? = inconclusive; / = not tested or not shown; & = joins results of further samples; [ ] = another dose, or the depositor's remark.

SMILES | Rango dissoc inh | GLA inh pH 4.5 | miR-21 reporter | Rango complex inh
O=C(Nc1cccc(O)c1)c1c(O)c2ccccc2[nH]c1=O | -13% | / | -62% | 1.0%
Cc1cc(=O)oc2cc(OCCSCCN3CCCCC3)ccc12 | -2% | -8 | -16% | 1.9%
COc1ccc(C(CNC(=O)COc2ccccc2OC)N2CCCCC2)cc1 (stereo not drawn) | 2% | / | -3% | -0.3%
CC1(CCC#N)N=C(SCCC#N)N(c2ccccc2)C1=O (stereo not drawn) | -5% | 0 | -16% | -0.1%
CC(C)N(C(=O)CSc1nnnn1C1CCCC1)C(C)C | 3% | 0 | -5% | -3.0%
C=C(C)Cn1c(CNC(C)=O)nc2ccccc21 | -2% | 6 | -6% | 0.1%
CC(C)C(OC(=O)c1ccco1)C(=O)NCc1ccccc1 (stereo not drawn) | 4% | -7 | -4% | -1.3%
COc1ccc(C(=O)c2sc3nc(-c4ccccc4)ccc3c2N)cc1OC | ? | -2 | -13% | ?
COc1ccc(C)cc1NC(=O)c1cc(S(=O)(=O)N2CCCCC2)ccc1N1CCOCC1 | 1% | / | / | 3.6%
CCOC(=O)c1c(C)[nH]c(C)c1C(=O)CSc1nnc(N)s1 | 6% | 8 | -2% | 3.8%
O=C(COC(=O)CCC(=O)c1cccs1)NCc1ccc(Cl)cc1 | 7% | 5 | 2% | -2.5%
O=C(NCCN1CCN(S(=O)(=O)c2ccc(F)cc2)CC1)C(=O)NCc1ccccc1 | -4% | / | 6% | -3.7%
CCOc1ccc(C(=O)NCC(C)NC(=O)c2ccc(OCC)cc2)cc1 (stereo not drawn) | 5% | / | 2% | -1.7%
O=C(NNc1ccccc1)c1ccccc1 | 4% | / | / | 3.5%
Cc1cc(C)n2c(SCC(=O)Nc3ncc(C(F)(F)F)cc3Cl)nnc2n1 | -3% | -4 | 7% | -3.9%
CCOc1cccc(C(=O)Nc2ccccc2C(=O)N2CCOCC2)c1 | 1% | / | -1% | ?
O=C(c1ccccc1SCc1ccccc1)N1CCOCC1 | 32% | -4 | 1% | 4.9%
Cc1ccc(S(=O)(=O)N(C)c2ccc(OC(C)C(=O)N(C)c3ccccc3)cc2)cc1 (stereo not drawn) | -2% | / | / | -2.8%
CC(C)Cn1cc(C(=O)N2CCOCC2)c2c3ccccc3n(C)c2c1=O | -8% | 1 | 0% | -3.1%
COc1ccc(Cc2nnc(SCC(=O)NCc3ccco3)o2)cc1 | -7% | -4 | -5% | 0.1%
CCN1CCN(Cc2ccc(NC(=O)c3ccc(C)c(NC(=O)c4cccc5[nH]ccc45)c3)cc2C(F)(F)F)CC1 | -3% | -18 | -25% | -3.8%
C[C@H](NC(=O)c1ccccc1)C(=O)N1CCN(Cc2ccc3c(c2)OCO3)CC1 | 15% | / | / | 1.2%
O=C(CSc1ncnc2c1nnn2Cc1ccccc1F)N1CCN(c2ccccc2)CC1 | -9% | -5 | -3% | -6.1%
CCOCCc1nnc(NC(=O)CS(=O)(=O)Cc2ccccc2)s1 | -1% | / | 1% | -0.6%
O=C(CCc1ccccc1)Nc1nnc(-c2ccccn2)o1 | -21% | -7 | -7% | 2.5%
CCC(=O)c1ccc(OC)c(OC)c1OCc1ccccc1 | -26% | / | / | 6.1%
CCOC(=O)NC(=O)/C(C#N)=C\c1ccccc1 | 15% | 2 | 2% | -0.2%
O=C(O)CSc1nnc(-c2ccc3c(c2)OCO3)n1-c1ccccc1 | 1% | 1 | -14% | -1.2%
CC(=O)c1ccc(-n2nnnc2SCC(=O)N2CCN(C(=O)c3ccco3)CC2)cc1 | -13% | 4 | 2% | 1.0%
O=C(CN1CCN(c2ccc([N+](=O)[O-])cc2)CC1)Nc1ccccn1 | -15% | -18 | 21% | -1.4%
CCc1noc(C)c1C(=O)Nc1ccc(F)c(F)c1F | -3% | / | / | -1.8%
CC1C(=O)Nc2ccc(S(=O)(=O)N3CCCCCC3)cc21 (stereo not drawn) | -1% | / | / | -3.3%
CCS(=O)(=O)c1nc(S(=O)(=O)c2ccc(C)cc2)c(N2CCC(C)CC2)s1 | -10% | / | 2% | -1.5%
CCOC(=O)N1CCC(NC(=O)c2ccc3nc(N4CCOCC4)sc3c2)CC1 | 6% | 3 | -12% | -0.2%
O=C(CCN1C(=O)c2cccc3cccc(c23)C1=O)N1CCOCC1 | -27% | 3 | -54% | -2.4%
COC(=O)c1nnn(CC(=O)NC(=O)Nc2ccccc2)c1C(=O)OC | 17% | 6 | -7% | 1.8%
CCOC(=O)/C=C1\CC(C(=O)OCC)Oc2c(OC)cccc21 (stereo not drawn) | 3% | -13 | / | 1.8%
O=Cc1ccccc1OCCOc1ccccc1C=O | -6% | -2 | 2% | -2.0%
C=CCN1C=CC(=O)[C@@H](O)[C@H]1c1ccccc1Br | 1% | / | / | -2.6%
CCN(CC)c1nc(-c2cccc(OC)c2O)nc2ccccc12 | -3% | -16 | 3% | -2.6%
CN(CCCNC(=O)c1nn(C)c2c1CS(=O)(=O)c1ccccc1-2)Cc1ccccc1 | 40% | / | 1% | 4.8%
COc1cc(Cl)c(S(=O)(=O)n2cnc(C)c2)cc1Cl | 2% | -3 | -8% | 0.7%
COCc1[nH]nc2c1C(C1C=CCCC1)C(C#N)=C(N)O2 (stereo not drawn) | -3% | 3 | -1% | 8.0%
CCCC(=O)N1CCN(S(=O)(=O)c2cc(Cl)ccc2OC)CC1 | -3% | 6 | -4% | -1.6%
COc1ccc(-c2cc3ccccc3n2CC(O)CNCCO)cc1 (stereo not drawn) | -10% | -6 | -1% | ?
O=C1C(F)=CC(COC(c2ccccc2)(c2ccccc2)c2ccccc2)OC1n1cc(F)c(=O)[nH]c1=O (stereo not drawn) | -9% | / | / | 3.3%
CCOc1cc(C(=S)N2CCOCC2)ccc1OS(=O)(=O)c1ccccc1[N+](=O)[O-] | 1% | 3 | -8% | -0.6%
Cn1c(SCc2cccc(Br)c2)nnc1-c1ccncc1 | -18% | / | -3% | 1.1%
Cc1ccc(OCC(=O)N2CCN(C(=O)c3cccs3)CC2)cc1 | -20% | -13 | -1% | -3.0%
CN1CCN(S(=O)(=O)c2cc([N+](=O)[O-])ccc2Cl)CC1 | -6% | 2 | 4% | 2.1%
CCOC(=O)Cn1c(=NC(=O)C(C)(C)C)sc2cc([N+](=O)[O-])ccc21 | -8% | 3 | -13% | -0.8%
COc1ccc(-c2cc(C(=O)O)c3c(C)nn(-c4ccccn4)c3n2)cc1 | 13% | -1 | -1% | 3.4%
C[C@]12c3[nH]c4ccccc4c3CCN1C(=O)C(CC(=O)NCc1ccco1)C[C@@H]2C(=O)N1CCOCC1 (stereo partly drawn) | 19% | / | / | 0.0%
FC(F)(F)c1cccc(NC(=S)NCCN2CCOCC2)c1 | -9% | -5 | -5% | -3.5%
C=CCn1c(SCC(=O)OCC)nc2cc(C(=O)NCc3ccco3)ccc2c1=O | -16% | -3 | 8% | 4.4%
CCOc1ccc(Oc2c(/C=N/NC(=O)C3CC3)c(C)nn2-c2ccccc2)cc1 | 0% | -2 | -23% | -2.3%
Cc1cccc(NC(=O)CSc2nc(C)c(Cc3ccccc3)c(=O)[nH]2)c1 | 4% | -1[21.1 µM] | -1%&-2% | 7.5%
CCCc1cc(C(=O)N2CCCC(N3CCN(c4ccc(F)cc4)CC3)C2)no1 (stereo not drawn) | -1% | / | 0% | 4.8%
CCC(=O)NC(=S)Nc1ccc2oc(-c3ccc(OC)cc3)nc2c1 | -4% | -3 | -27% | 2.2%
CCOC(=O)c1oc2ccc(Br)cc2c1CSc1nnc(C)s1 | 0% | -3 | -6% | 4.1%

Reprinted from the part before: 6 entries; new compounds follow.
SMILES | Rango dissoc inh | GLA inh pH 4.5 | miR-21 reporter | Rango complex inh
C=CCn1c(SCC(=O)OCC)nc2cc(C(=O)NCc3ccco3)ccc2c1=O | -16% | -3 | 8% | 4.4%
CCOc1ccc(Oc2c(/C=N/NC(=O)C3CC3)c(C)nn2-c2ccccc2)cc1 | 0% | -2 | -23% | -2.3%
Cc1cccc(NC(=O)CSc2nc(C)c(Cc3ccccc3)c(=O)[nH]2)c1 | 4% | -1[21.1 µM] | -1%&-2% | 7.5%
CCCc1cc(C(=O)N2CCCC(N3CCN(c4ccc(F)cc4)CC3)C2)no1 (stereo not drawn) | -1% | / | 0% | 4.8%
CCC(=O)NC(=S)Nc1ccc2oc(-c3ccc(OC)cc3)nc2c1 | -4% | -3 | -27% | 2.2%
CCOC(=O)c1oc2ccc(Br)cc2c1CSc1nnc(C)s1 | 0% | -3 | -6% | 4.1%
Cn1c(SCC(=O)Nc2ccc3c(c2)OCCO3)nnc1-c1ccco1 | 10% | -11 | -4% | -2.8%
CC1CCCCC1NC(=O)CSc1nncs1 (stereo not drawn) | -1% | 9 | 1% | -1.0%
O=C(O)c1ccc(OCC2CCCO2)cc1 (stereo not drawn) | 3% | / | -5% | 1.2%
Cc1cc(C)n(-c2nc(Nc3ccccc3C)nc(-n3nc(C)cc3C)n2)n1 | / | 5 | -3% | /
COc1cc(SC)ccc1C(=O)Nc1nc(C)cs1 | -15% | 2 | ? | 0.5%
COC(=O)Nc1ccc(Cc2ccncc2)cc1 | -10% | 3 | -7% | -3.7%
O=C(O)c1ccc(CN2CCCCC2)o1 | 2% | 1 | 2% | -5.5%
Clc1cc(Br)ccc1NCc1cccnc1 | 10% | / | -18% | -3.0%
OC1(c2ccccc2F)CCN(Cc2nnnn2CCc2ccccc2)CC1 | -13% | -5 | -7% | 2.7%
CCC(C)[C@H](NC(=O)NC1CCCc2ccccc21)C(=O)OC (stereo partly drawn) | -10% | -1 | -4% | 0.0%
C/C(=N\NC(=O)c1cc(C2CC2)nc2ccccc12)c1ccc(O)cc1O | -20% | / | ? | ?
COc1cc(C(=O)NCC(=O)Nc2ccc(F)c(F)c2)ccc1OCC(=O)N1CCOCC1 | -2% | / | / | 5.7%
COC(=O)c1cccc(NC(=O)c2cnoc2C)c1 | 8% | 1 | -38% | -2.2%
O=C1CC(N(Cc2ccc3c(c2)OCO3)C(=O)Nc2ccc(F)cc2)C(=O)N1c1ccccc1 (stereo not drawn) | -4% | 2 | 11% | -3.8%
O=C(CSc1nnc(-c2cccnc2)n1-c1ccc(F)cc1)NCc1ccc2c(c1)OCO2 | 13% | -7 | -6% | -3.1%
Cc1cc(C)nc(SCC(=O)Oc2ccc3oc(=O)cc(C)c3c2)n1 | 4% | 5 | -16% | 0.6%
O=C(NC(=S)N1CCCCC1CO)c1cc(Br)ccc1Cl (stereo not drawn) | 2% | / | / | 8.2%
CCc1[nH]c(=S)c(C#N)c(-c2ccccc2)c1C(=O)OC | 32% | 12 | -1% | 1.0%
C=CCN(c1ccc(C(=O)NC(C)C)cc1)S(C)(=O)=O | 1% | -2 | -1% | -2.3%
CSc1nc(-c2ccc(Cl)cc2)c(C#N)c(=O)[nH]1 | 3% | 6 | -2% | ?

Single entries from above:
In Rango dissoc inh, COc1cc(SC)ccc1C(=O)Nc1nc(C)cs1 reads -15%
In Rango complex inh, O=C(CSc1nnc(-c2cccnc2)n1-c1ccc(F)cc1)NCc1ccc2c(c1)OCO2 reads -3.1%
In Rango dissoc inh, C/C(=N\NC(=O)c1cc(C2CC2)nc2ccccc12)c1ccc(O)cc1O reads -20%

More compounds.
SMILES | Rango dissoc inh | GLA inh pH 4.5 | miR-21 reporter | Rango complex inh
COc1ccc(Cn2ccnc2SCC(=O)Nc2ccccc2)cc1 | -1% | / | -7% | -1.1%
O=C(CCN1C(=O)c2ccc(Br)cc2C1=O)NC1CCCCC1 | 4% | / | 1% | 0.1%
Cc1cc(C)c2c(CN3CCN(Cc4ccc5c(c4)OCO5)CC3)cc(=O)oc2c1C | 0% | -1 | -5% | 0.6%
CSc1nc(C)cc(OCNC(=O)c2cccs2)n1 | 15% | 3 | 1% | -1.9%
Cc1cccc(NC(=O)C2CC(=O)N(c3ccccc3)C2)c1C (stereo not drawn) | 1% | -4 | -2% | -0.5%
Cn1nc(C(=O)NCc2cccc(Cl)c2)c2c1-c1ccccc1S(=O)(=O)C2 | 11% | / | 1%&-1% | -11%
Cc1ccccc1NC(=O)CN1CCN(C)CC1 | -4% | / | 2% | -1.0%
N#Cc1cnc(Sc2ccccc2)nc1 | -3% | -4 | -2% | -0.6%
C=CCn1c(C)cc(C(=O)CSc2nc3ccccc3[nH]2)c1C | 4% | 0 | ? | -1.4%
Cc1nccn1-c1ccc(C=O)cc1 | -5% | 4 | -4% | -0.1%

The list is partial; rates above refer to the full screens.
